Screens deposited in PubChem BioAssay by Broad Institute.
Vaccinia inh: blocks a specific stage of Vaccinia orthopoxvirus infection | AID 1053133 | activity change (mCherry), % (no concentration beside the values) | 0.01% of 89,000 active | Vaccinia-infected cells, mCherry/Venus stage reporter fluorescence; stronger effect = lower value; some inactives read as strong as hits;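 active = mCherry past -33% and 40 or more points under the early reporter, replicates agreeing; inconclusive = past -33% without that gap or agreement; tested in A549 cells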;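 also: scaled between vehicle wells and reference inhibitor wells; 23 nL library stock went into each well; one replicate is shown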
Vaccinia inh Venus: second read-out of Vaccinia inh, no call of its own (marks repeat the call); activity change (Venus), %; measured here: Venus reporter, other viral stage;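 negative = less Venus signal; first of two replicates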
* = called active by the depositor; ? = inconclusive; nt = no result given. Only part of the results is shown, so the mix of outcomes need not match the whole.

SMILES	Vaccinia inh	Vaccinia inh Venus
CN(C)C(=O)c1ccc(-c2ccc([C@H]3[C@H]4CN(C(=O)C5CCCC5)CCCCN4[C@H]3CO)cc2)cc1	38	11
CC(=O)N1CCCCN2[C@H](C1)[C@H](c1ccc(-c3cccc(C)c3)cc1)[C@@H]2CO	?	nt
O=C(C[C@H]1C[C@H]2c3cc(NC(=O)C4CCOCC4)ccc3O[C@H]2[C@H](CO)O1)NCC1CC1	15	6
O=C([C@H]1N[C@H]2c3ccc(-c4ccccc4F)c(=O)n3C[C@H]2[C@@H]1CO)N1CCCCC1	-1	5
CCC(=O)N1[C@H](CO)[C@@H](c2ccccc2)[C@@H]1CN(C(C)C)S(C)(=O)=O	24	13
C[C@@H]1CN([C@H](C)CO)C(=O)c2cc(NC(=O)Cc3ccccc3)ccc2O[C@@H](C)CCCCO[C@@H]1CN(C)Cc1ccncc1	4	6
CCCC#Cc1cnc2c(c1)C(=O)N([C@@H](C)CO)C[C@@H](C)[C@@H](CN(C)C(=O)Cc1cccnc1)O2	5	7
COCC(=O)N(C)C[C@H]1Oc2ncc(-c3ccc(C)cc3)cc2C(=O)N([C@@H](C)CO)C[C@H]1C	-10	-5
O=S(=O)(N[C@@H]1CC[C@H](CCn2cc(C3(O)CCCC3)nn2)O[C@H]1CO)c1ccccc1	-2	-1
Cc1ccc(S(=O)(=O)N(C)C[C@H]2Oc3ccc(NC(=O)CCN4CCOCC4)cc3CC(=O)N([C@H](C)CO)C[C@@H]2C)cc1	-9	-10
C[C@@H]1CN([C@@H](C)CO)C(=O)CCCn2cc(nn2)CO[C@H]1CN(C)Cc1ccc(O)cc1	2	-5
Cc1noc(C)c1NC(=O)N[C@@H]1CC[C@@H](CC(=O)NCc2ccc(Cl)c(Cl)c2)O[C@H]1CO	13	16
COCC#Cc1ccc([C@@H]2[C@@H](CO)N3C(=O)CN(C(=O)C4CCOCC4)C[C@@H]23)cc1	1	0
C[C@H](CO)N1C[C@H](C)[C@H](CN(C)S(=O)(=O)c2ccccc2)Oc2c(NC(=O)c3nc4ccccc4s3)cccc2C1=O	-7	4
C[C@@H]1CN([C@@H](C)CO)C(=O)c2cc(NS(C)(=O)=O)ccc2O[C@H]1CN(C)C(=O)Nc1ccc(C(F)(F)F)cc1	-3	1
CCCC#Cc1ccc([C@H]2[C@@H](CO)N3C(=O)CN(C(=O)Nc4ccccc4F)C[C@@H]23)cc1	0	-4
COc1ccc2c3c(n(C)c2c1)[C@@H](CO)N(C(=O)CN(C)C)CC31CCN(S(C)(=O)=O)CC1	2	-2
COc1ccccc1S(=O)(=O)N1CC[C@@H]2[C@H](CO)Nc3ccc(-c4ccccc4F)cc3[C@@H]21	?	nt
CCC(=O)N1[C@@H]2c3cccc(=O)n3C[C@H]1[C@H](CO)[C@H]2C(=O)NCc1ccccc1	6	17
COCCNC(=O)C[C@@H]1CC[C@@H]2[C@H](COC[C@H](O)CN2Cc2cccc(-c3ccncc3)c2)O1	?	nt

Full records as entered above:
Record of `CC(=O)N1CCCCN2[C@H](C1)[C@H](c1ccc(-c3cccc(C)c3)cc1)[C@@H]2CO` → Vaccinia inh = ?; Vaccinia inh Venus = nt
Record of `CCCC#Cc1ccc([C@H]2[C@@H](CO)N3C(=O)CN(C(=O)Nc4ccccc4F)C[C@@H]23)cc1` → Vaccinia inh = 0; Vaccinia inh Venus = -4
Record of `O=C([C@H]1N[C@H]2c3ccc(-c4ccccc4F)c(=O)n3C[C@H]2[C@@H]1CO)N1CCCCC1` → Vaccinia inh = -1; Vaccinia inh Venus = 5

4 compounds already listed, arranged by length of the SMILES, falling:
SMILES	Vaccinia inh	Vaccinia inh Venus
C[C@@H]1CN([C@H](C)CO)C(=O)c2cc(NC(=O)Cc3ccccc3)ccc2O[C@@H](C)CCCCO[C@@H]1CN(C)Cc1ccncc1	4	6
C[C@H](CO)N1C[C@H](C)[C@H](CN(C)S(=O)(=O)c2ccccc2)Oc2c(NC(=O)c3nc4ccccc4s3)cccc2C1=O	-7	4
COCC#Cc1ccc([C@@H]2[C@@H](CO)N3C(=O)CN(C(=O)C4CCOCC4)C[C@@H]23)cc1	1	0
CC(=O)N1CCCCN2[C@H](C1)[C@H](c1ccc(-c3cccc(C)c3)cc1)[C@@H]2CO	?	nt

The listing picks up with the 4 entries that preceded the break.
SMILES	Vaccinia inh	Vaccinia inh Venus
COc1ccc2c3c(n(C)c2c1)[C@@H](CO)N(C(=O)CN(C)C)CC31CCN(S(C)(=O)=O)CC1	2	-2
COc1ccccc1S(=O)(=O)N1CC[C@@H]2[C@H](CO)Nc3ccc(-c4ccccc4F)cc3[C@@H]21	?	nt
CCC(=O)N1[C@@H]2c3cccc(=O)n3C[C@H]1[C@H](CO)[C@H]2C(=O)NCc1ccccc1	6	17
COCCNC(=O)C[C@@H]1CC[C@@H]2[C@H](COC[C@H](O)CN2Cc2cccc(-c3ccncc3)c2)O1	?	nt
C[C@H](CO)N1C[C@H](C)[C@H](CN(C)C(=O)Nc2ccc(F)cc2)Oc2ccc(NS(=O)(=O)c3ccc(F)cc3)cc2C1=O	16	17
COc1ccc(S(=O)(=O)N(C)C[C@H]2Oc3ccc(NS(=O)(=O)c4cccs4)cc3CC(=O)N([C@@H](C)CO)C[C@H]2C)cc1	-17	-4
O=C(C[C@@H]1C=C[C@@H](NC(=O)Nc2ccc3c(c2)OCO3)[C@H](CO)O1)NCc1ccc(Cl)cc1	0	4
C[C@@H]1CN([C@@H](C)CO)C(=O)c2cc(-c3cccc(F)c3)cnc2O[C@H]1CN(C)C(=O)c1cccc(F)c1	-13	-11
CCCC#Cc1cnc2c(c1)C(=O)N([C@@H](C)CO)C[C@H](C)[C@@H](CN(C)C(=O)NCCC)O2	0	7
COc1ccc(C#Cc2ccc([C@H]3[C@@H](CO)N4CCCCN(C(=O)Cc5ccccc5)C[C@@H]34)cc2)cc1	-12	-3
CN1CCN(C(=O)C[C@H]2CC[C@@H]3[C@@H](COc4ccc(NC(=O)C5CCCC5)cc4C(=O)N3C)O2)CC1	11	2
C[C@H](CO)N1C[C@H](C)[C@@H](CN(C)Cc2ccc(C(F)(F)F)cc2)Oc2ccc(NC(=O)CCCN(C)C)cc2C1=O	-5	3
Cc1ccc(S(=O)(=O)Nc2cccc3c2O[C@H](CN(C)C(=O)Nc2ccc(F)cc2)[C@@H](C)CN([C@@H](C)CO)C3=O)cc1	-4	0
Cc1ccc(S(=O)(=O)N(C)C[C@H]2OCCCC[C@H](C)Oc3ccc(NC(=O)Nc4ccc5c(c4)OCO5)cc3C(=O)N([C@@H](C)CO)C[C@@H]2C)cc1	-3	-1
COCC(=O)N(C)C[C@H]1Oc2cc(-c3ccc(C)cc3)ccc2S(=O)(=O)N([C@@H](C)CO)C[C@@H]1C	-19	-12
COc1ccc(S(=O)(=O)N(C)C[C@@H]2Oc3c(NC(=O)c4nc5ccccc5s4)cccc3C(=O)N([C@H](C)CO)C[C@@H]2C)cc1	?	nt
C[C@@H]1CN([C@@H](C)CO)C(=O)CCCn2cc(nn2)CO[C@H]1CN(C)S(=O)(=O)c1ccc2c(c1)OCCCO2	14	4
CC(C)COC(=O)N(C)C[C@@H]1OCc2cn(nn2)CCCC(=O)N([C@H](C)CO)C[C@H]1C	18	13
Cc1ccccc1S(=O)(=O)N1C[C@@H](O)COC[C@@H]2O[C@@H](CC(=O)N3CCOCC3)CC[C@H]21	13	10
C[C@@H]1CN([C@@H](C)CO)C(=O)c2cc(Br)cnc2O[C@@H]1CN(C)C(=O)CN1CCOCC1	3	4
C[C@@H]1CN([C@H](C)CO)C(=O)c2cc(NC(=O)C3CC3)ccc2O[C@@H]1CN(C)Cc1ccc(C(=O)O)cc1	1	-2
C[C@H](CO)N1C[C@H](C)[C@H](CN(C)Cc2ccc(C(=O)Nc3ccccc3N)cc2)Oc2ccc(NC(=O)Cn3cnnn3)cc2C1=O	16	4
C[C@@H]1CCCCO[C@@H](CN(C)Cc2ccncc2)[C@@H](C)CN([C@@H](C)CO)C(=O)c2cc(NC(=O)NC3CCCCC3)ccc2O1	-17	-5
O=C(C[C@@H]1CC[C@@H](NS(=O)(=O)c2ccc(F)cc2)[C@@H](CO)O1)N1CCC(Cc2ccccc2)CC1	-16	-6
O=C(Nc1ccc(F)cc1)N[C@@H]1CC[C@H](CCn2cc(-c3ccccc3F)nn2)O[C@@H]1CO	5	1
Cc1ccc(S(=O)(=O)Nc2ccc3c(c2)C(=O)N([C@@H](C)CO)C[C@@H](C)[C@H](CN(C)C)O3)cc1	0	-6
C[C@@H]1CN([C@H](C)CO)C(=O)c2cccc(NS(C)(=O)=O)c2O[C@H]1CN(C)CC1CCCCC1	-6	-5
C[C@@H]1CN([C@H](C)CO)C(=O)c2cccc(N(C)C)c2O[C@@H]1CN(C)C(=O)Nc1ccc(F)cc1	15	8
O=C(C[C@H]1C=C[C@@H](NC(=O)NC2CCCCC2)[C@H](CO)O1)NCc1ccc(Cl)cc1	10	11
CCC(=O)Nc1ccc2c(c1)C(=O)N(C)[C@H]1CC[C@@H](CC(=O)NC3Cc4ccccc4C3)O[C@@H]1CO2	5	12
CC(C)NC(=O)N(C)C[C@H]1OCCCC[C@@H](C)Oc2ccc(NC(=O)Cc3ccccc3)cc2C(=O)N([C@H](C)CO)C[C@@H]1C	6	5
C[C@H](CO)N1C[C@H](C)[C@H](CN(C)C(=O)Nc2ccc(C(F)(F)F)cc2)Oc2ccc(NC(=O)c3ccncc3)cc2C1=O	7	15
O=C(C1CCCC1)N1CC2(C1)[C@H](c1ccccc1)[C@@H](CO)N2CC1CC1	?	nt
COc1cccc(-c2ccc3c(c2)[C@H]2[C@H](CCN2C(=O)c2ccc4c(c2)OCO4)[C@@H](CO)N3C)c1	?	nt
COc1cccc(S(=O)(=O)Nc2ccc3c(c2)C(=O)N(C)C[C@H](OC)[C@@H](C)CN(Cc2ccccc2F)[C@H](C)CO3)c1	-20	-12
